Bioassay records (PubChem)
2A StopGo – FMDV 2A StopGo reporter, luciferase signal; human cells with a luciferase reporter of 2A StopGo recoding; control for the full effect not named in the record; Potency, µM (titrated, usually from 57.9 µM), inactives show at the top dose signal change, negative = less light; actives 1.2% (n = 410,000); active = well fitted falling curve with a large enough effect; inconclusive = small, poorly fitted or top-dose-only effect; inactive = no such curve, though single readings can be large or run the other way; tested in HEK293T cells; also: % is scaled to controls: 0 for no effect and ±100 for the full control effect; nearly all actives have a fitted effect of over 45% in size; luciferase light after 4 h
MARV entry inh – inhibitors of Marburg virus binding or cell entry | AID 540276 | actives 1.8% (n = 300,000) | Potency, µM (titrated, usually from 37.8 µM), for inactives: top-dose activity change, negative = inhibition, hits mostly inhibitors | Marburg virus pseudotyped entry inhibition, cell reporter; control for the full effect not named in the record; about a third of the inactives were read at about 46 µM; active = well fitted inhibition curve with a large enough effect; inconclusive = small, poorly fitted or top-dose-only effect, or effect the other way; inactive = flat fitted curve, though single readings scatter; tested in HEK293 cells; about a fifth of its hits are not listed in these tables; also: % is scaled to controls: 0 for no effect and ±100 for the full control effect; luciferase read-out
RE007 growth inh – less growth of the S. pombe RE007 Vpr strain. actives 0.21% (n = 360,000). S. pombe RE007 Vpr strain, BacTiter-Glo ATP luminescence, 24 h; control for the full effect not named in the record. Potency, µM (doses to about 92.2 µM), without a hit: top-dose activity change, negative = less growth; active = well fitted falling curve with a large enough effect; inconclusive = small, poorly fitted or top-dose-only effect; inactive = no such curve, though single readings can be large or run the other way;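 also: % is scaled to controls: 0 for no effect and ±100 for the full control effect; nearly all actives have a fitted effect of over 50% in size; the assay follows cell death caused by Vpr and the record does not say whether a fall means rescue or toxicity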
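Fission yeast RE007 carrying one integrated HIV-1 vpr copy, seeded at OD 0.01 in PMG+AL medium with 23 nL pinned compound. Grown 24 h at 30 degrees; viability read by BacTiter-Glo luminescence after 5 min.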
SARS PLpro yeast – inhibitors of SARS-CoV papain-like protease in yeast. S. cerevisiae expressing SARS-CoV PLpro, growth rescue; control for the full effect not named in the record. Potency, µM (highest dose often 32.9 µM), without a hit: at the top dose activity, positive = growth rescue. actives 0.19% (n = 330,000); also: 0% is about no effect; nearly all actives have a fitted effect of over 55% in size; growth read by luminescence after 48 h
NS1 inh – blocks influenza NS1 protein function | actives 0.4% (n = 270,000) | S. cerevisiae slowed by influenza A NS1, growth recovery by OD600 | Potency, µM (titrated, usually from 46.1 µM), without a hit: at the top dose activity, positive = more growth; also: actives are rising curves; nearly all actives have a fitted effect of over 50% in size
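Growth recovery, yeast-based: influenza A NS1 expressed in S. cerevisiae causes slow growth, and suppressors are detected by OD600. The parent strain without NS1 is used as positive control.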
Cruzain noTriton – cruzain (T. cruzi) inhibition without detergent. P25779. purified cruzain, Z-FR-AMC fluorescence, no detergent. Potency, µM, inactives show max response, negative = inhibition, usual class: inhibitors. actives 2.3% (n = 200,000); active = well fitted curve in the direction sought with a large enough effect; inconclusive = small, poorly fitted or top-dose-only effect, or another doubt; inactive = no such curve, though single readings can be large; an effect the other way counts as inactive or inconclusive;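 also: plate controls were enzyme without inhibitor for no effect and buffer without enzyme for full effect; nearly all actives have a fitted effect of over 40% in size; top concentration of the series not given in the record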
Target sequence (P25779 123-467 limits assumed): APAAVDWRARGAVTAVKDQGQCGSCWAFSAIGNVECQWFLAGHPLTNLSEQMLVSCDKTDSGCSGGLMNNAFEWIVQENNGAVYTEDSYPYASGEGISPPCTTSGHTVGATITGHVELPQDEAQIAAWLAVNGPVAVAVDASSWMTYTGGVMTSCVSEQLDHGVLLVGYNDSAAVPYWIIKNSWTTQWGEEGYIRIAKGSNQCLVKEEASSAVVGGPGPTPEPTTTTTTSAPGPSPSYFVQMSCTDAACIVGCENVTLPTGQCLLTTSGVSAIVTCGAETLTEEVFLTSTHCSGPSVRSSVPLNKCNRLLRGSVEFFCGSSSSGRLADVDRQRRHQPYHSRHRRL
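Purified cruzain at 1.5 nM, pre-incubated 15 min with compound at room temperature in 100 mM sodium acetate pH 5.5, 5 mM DTT, 0.00005% Triton X-100. Reaction started with 2 uM Z-FR-AMC; AMC fluorescence increase over 60 s gives rate.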
LASV entry inh – blocks Lassa virus binding to or entry into cells | Lassa virus pseudotype entry inhibition, cell reporter; control for the full effect not named in the record | Potency, µM (highest dose often 37.9 µM), for inactives: at the top dose activity change, negative = inhibition, actives largely listed as inhibitors | actives 1.2% (n = 300,000); active means well fitted inhibition curve with a large enough effect; inconclusive means small, poorly fitted or top-dose-only effect, or effect the other way; inactive means flat fitted curve, though single readings scatter; tested in HEK293 cells; also: % is scaled to controls: 0 for no effect and ±100 for the full control effect; nearly all actives have a fitted effect of over 50% in size; luciferase read-out
Cruzain Triton – blocks cruzain activity in presence of Triton detergent | actives 0.43% (n = 200,000) | purified cruzain, Z-FR-AMC fluorescence, 0.01% Triton | AID 1478 | Potency, µM, inactives show max response, negative = inhibition, usual class: inhibitors | P25779; active = well fitted curve in the direction sought with a large enough effect; inconclusive = small, poorly fitted or top-dose-only effect, or another doubt; inactive = no such curve, though single readings can be large; an effect the other way counts as inactive or inconclusive;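 also: plate controls were neutral wells for no effect and buffer without enzyme for full effect; nearly all actives have a fitted effect of over 40% in size; top concentration of the series not given in the record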
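Detergent-containing arm of a paired screen for aggregation-based inhibition: 0.01% Triton X-100 present. Cruzain at 1.5 nM cleaved 2 uM Z-FR-AMC at pH 5.5 with 5 mM DTT; AMC fluorescence gain over 60 s measured activity.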
* = called active by the depositor; ? = inconclusive; . = no result given; [ ] = another dose, or the depositor's remark. Unless noted, calls follow the shape of the dose curve; as a rule, active means well fitted rising curve with a large enough effect; inconclusive means small, poorly fitted or top-dose-only effect; inactive means no such curve, though single readings can be large or run the other way. Potency is read from the fitted curve at half-maximal effect.

SMILES	2A StopGo	MARV entry inh	RE007 growth inh	SARS PLpro yeast	NS1 inh	Cruzain noTriton	LASV entry inh	Cruzain Triton
CC(C)N(Cc1ccccc1)C(=O)CN1C(=O)NC(Cc2ccccc2)(c2ccccc2)C1=O (centres undefined)	-25%	?	-13%	2%	-3%	.	-8%	.
COC(=O)c1ccc(C23CC4(C2)[C@H](CN(Cc2ccc(-c5ccccc5)cc2)[C@@H]4c2ccccc2)C3c2ccccc2)cc1 (some centres undefined)	0%	.	5%	2%	0%	7.9µM*	.	1.7%
CCCCN(C(=O)C1CCC1)c1c(N)n(CCC)c(=O)[nH]c1=O	-12%	8%[46.1 µM]	-10%	-1%	.	.	21%	.
Cc1ccc(C)c(N2CCN(C(=O)CCCCCn3c(=O)[nH]c4ccccc4c3=O)CC2)c1	0%	.	.	.	.	9%	-7%[46.1 µM]	-1.1%
O=C(CCC(=O)c1ccc(Br)cc1)Nc1cccc(C(F)(F)F)c1	?	-21%	-2%	-8%	-18%	-7%	4%	-11%
Cn1c(=O)c2c(nc(Cl)n2Cc2ccc(Cl)c(Cl)c2)n(C)c1=O	?	1%	23%	-5%	9%	1%	-6%	0.1%
COc1cccc2[nH]c3c(Cl)ncnc3c12	-24%	?	1%	-2%	13%	-30%	4%	?
Cc1ccc(N2C(=O)CC(N3CCN(c4ccccn4)CC3)C2=O)cc1 (centres undefined)	-6%	16%	-8%	-5%	3%	.	5%	.
O=C(Nn1cnnc1)c1cc(-c2cccc(Br)c2)nc2ccccc12	10%	.	-4%	0%	11%	.	.	.
CC1CCN(S(=O)(=O)c2ccc(NC(=O)C3CCN(C(=O)c4ccco4)CC3)cc2)CC1	-9%	?	12%	0%	-16%	.	?	.
COc1ccc(C(OC(=O)c2ccco2)C(=O)NCc2ccc(C)cc2)cc1 (centres undefined)	-11%	-21%	7%	0%	-2%	-9%	-9%	-4.2%
CN(C(=O)COC(=O)c1nn(C)c(=O)c2ccccc12)c1c(N)n(Cc2ccccc2)c(=O)[nH]c1=O	-24%	20%	-4%	-2%	.	.	6%	.
Cn1cc(C(=O)c2ccc(Cl)cc2)cc1-c1nc2ccccc2n1C	16µM*	?	?	-14%	-130%	?	?	-16%
CCNc1nc(CSc2ccccc2)nc2sc(C)c(C)c12	-3%	-14%	-10%	-66%	-18%	6%	?	-8.0%
Cc1nnc(SCc2cc(=O)[nH]c(/N=C(\N)Nc3ccccc3Sc3ccccc3)n2)s1	-12%	?	14%	0%	-1%	.	-6%[46.1 µM]	.
Cc1ccc(C)c(N2CCN(C(=O)CCS(=O)(=O)c3ccc4c(c3)NC(=O)C(C)S4)CC2)c1 (centres undefined)	16µM*	.	2%	-3%	7%	.	.	.
CC(C)c1ccc(-c2noc(SCC(=O)N3CCN(c4ccccc4F)CC3)n2)cc1	0%	.	.	.	.	2%	8%[46.1 µM]	-2.2%
N[C@@H](Cc1ccccc1)C(=O)N1C[C@H]2C[C@@H](C1)c1cccc(=O)n1C2	-17%	.	-1%	-3%	2%	.	.	.
CCN(CC(=O)Nc1ccc2c(c1)OCCO2)CC(=O)Nc1ccc(C)c(S(=O)(=O)N(C)C)c1	10%	4%	7%	.	.	.	-6%	.
Cc1ccccc1N1CCN(C2CCCN(C(=O)COc3ccccc3)C2)CC1 (centres undefined)	?	?	7%	14%	-16%	.	-6%	.
O=C(O)CN1C(=O)/C(=C\c2cccc(OCc3ccccc3)c2)SC1=S	0%	.	14%	1%	-28%	.	.	.
COc1ccc(N(CC(=O)NCc2ccc(F)cc2)C(=O)c2snc(C(N)=O)c2N)cc1OC	-14%	-12%[46.1 µM]	19%	2%	0%	.	-17%	.
COc1ccc(CCn2c(=S)[nH]c3ccc(N4CCOCC4)cc3c2=O)cc1OC	-9%	-15%	-2%	0%	.	.	?	.
Cc1cnc(NC(=O)C(C)N2C(=O)C3CC=CCC3C2=O)s1 (centres undefined)	5%	17%	19%	3%	-8%	-2%	11%	1.2%
O=[N+]([O-])c1ccc(SCCO)nc1SCCO	-8%	5%[46.1 µM]	-2%	0%	3%	.	1%	.
C=CCOc1ccc(C2C(C#N)=C(N)N(Nc3ccccc3)C3=C2C(=O)CC(C)(C)C3)cc1OC (centres undefined)	0%	?	-4%	1%	13%	0%	?	-4.7%
NS(=O)(=O)c1ccc(NCc2cc(Cl)ccc2OCc2ccc(F)cc2)cc1	?	?	6%	-2%	7%	-25%	?	-8.9%
CCCn1c(C)nnc1SCC(=O)NC1CCCCC1	-13%	.	-10%	-7%	3%	.	.	.
Cc1cc(/C=C2/C(=N)N3C(=NC2=O)SN=C3S(C)(=O)=O)c(C)n1-c1ccccc1F	-23%	?	-9%	1%	.	.	?	.
Cc1ccc(S(=O)(=O)N2CC=C(C(=O)NCCC(C)C)CC2)cc1	-10%	-6%	6%	1%	-1%	.	?	.
COc1ccc2c(c1)C(C)CC(C)(C)N2C(=O)NC1CCCCC1 (centres undefined)	0%	2%	-13%	7%	-6%	7%	?	-4.1%
COCCOC(=O)c1cc(C(=O)c2cc(F)ccc2O)coc1=N	13%	-1%[46.1 µM]	-24%	-13%	2%	-3%	6%	-1.2%
CCN(CC)C(=O)C1=C(C)Nc2ncnn2C1c1cccnc1 (centres undefined)	-1%	.	7%	1%	-1%	.	.	.
COc1cc(NS(=O)(=O)c2ccc(N/C=C(\C=O)c3nc4ccccc4o3)cc2)nc(OC)n1	1%	?	-15%	-1%	23%	?	9%	-13%
COc1ccccc1-c1nc(SCC(=O)O)n[nH]1	-24%	-2%[46.1 µM]	3%	6%	9%	-8%	4%	5.8%
O=C1C(Cl)=C(NC(=O)c2ccccc2)C(=O)C(Cl)=C1NC(=O)c1ccccc1	28µM*	?	3%	-11%	-64%	.	?	.
COc1ccccc1OCCOC(=O)Nc1ccccc1	26%	26%	18%	16%	7%	0%	24%	-2.0%
O=c1[nH]cnc2cc(Cl)ccc12	5%	-3%	11%	-4%	-11%	-8%	3%	-1.0%
Cc1ccccc1CN1C(=O)c2ccccc2Sc2ccc(C(=O)N3CCCC3)cc21	-13%	.	.	.	.	?	?	-0.9%
COc1ccc2cc(C(=O)NCCO)sc(=O)c2c1OC	9%	7%	3%	10%	-2%	-14%	11%	-7.5%
COC(=O)c1sc2ccccc2c1S(=O)(=O)N1CCN(c2ccc(C(C)=O)cc2)CC1	-17%	.	.	.	.	?	4%[46.1 µM]	-5.5%
Cc1ccc(OC(=O)CSc2nnc(-c3cccs3)o2)c(C)c1	3%	-2%[46.1 µM]	.	.	.	-4%	-5%[46.1 µM]	-4.1%
CN(C)C(=O)CCc1ccc2c3c([nH]c2c1)[C@]1(C)[C@@H](C(=O)N2CCCCC2)C[C@H](CC(=O)NCCN2CCOCC2)C(=O)N1CC3	-8%	9%	-2%	9%	.	.	.	.
N#Cc1c(NC(=O)C(=O)NCCCN2CCOCC2)sc2c1CCC2	-19%	.	3%	0%	7%	.	.	.
CC1CN(c2cc(=O)n(-c3cccc(Br)c3)c(=O)[nH]2)CC(C)O1 (centres undefined)	-13%	.	10%	1%	-8%	-6%	.	2.5%
Cc1cc(NC(=O)CSc2nnc(C)n2-c2ccccc2)no1	24%	3%[46.1 µM]	5%	3%	.	.	-14%[46.1 µM]	.
COc1ccc(Cl)cc1NC(=O)C(C)N(C)Cc1ccc(C(F)(F)F)cc1 (centres undefined)	?	?	25%	-3%	2%	1%	-10%	-9.4%
COc1ccccc1NC(=O)c1ccc2c(c1)C(=O)N(Cc1ccco1)C2=O	1%	.	6%	-5%	5%	.	.	.
Cc1nn(CC(=O)NCCc2cccs2)c(=O)c2nn(-c3ccccc3)c(C)c12	15%	.	6%	-4%	18%	.	.	.
CCCCSc1nc(O)cc(=O)n1CC	-17%	-2%[46.1 µM]	0%	1%	.	.	25%[46.1 µM]	.
N#Cc1nc(-c2ccc(OCc3ccc(Cl)cc3)cc2)oc1N1CCOCC1	-21%	8%	0%	?	-4%	?	2%	-0.9%
O=c1cc(-c2ccccc2Cl)oc2c(NS(=O)(=O)c3ccccc3C(F)(F)F)ccc(O)c12	34%[activator]	.	9%	0%	-1%	.	.	.
COc1ccc(-c2nc[nH]c2[N+](=O)[O-])cc1	-1%	0%[46.1 µM]	-4%	-6%	.	.	-1%	.
O=C(CNC(=O)C1CCCCC1)NC1CCCCC1	89%[activator]	20%	-14%	5%	14%	.	-14%	.
CCOC(=O)C1=C(C)N(CCCC(=O)NCc2ccc3c(c2)OCO3)C(=O)NC1c1ccc(Br)cc1 (centres undefined)	-22%	34%	-2%	18%	-7%	-5%	5%	1.9%
Cc1nc2ccc(S(=O)(=O)NCC(=O)Nc3ccc(F)cc3F)cc2s1	8%	19%[46.1 µM]	.	.	.	-4%	?	-2.5%
CCCNC(=O)c1ccc2nc(-c3ccccc3)c(-c3ccccc3)nc2c1	-20%	-25%	3%	-2%	-6%	?	?	-9.1%
CSc1cccc(NC(=O)C2CCCN2S(=O)(=O)c2ccc(Br)s2)c1 (centres undefined)	-27%	-25%	-6%	-15%	2%	-4%	-1%	-4.0%
CCOC(=O)N1CCc2c(sc(NCc3cccs3)c2C(=O)Nc2cc(Cl)ccc2OC)C1	3%	.	.	.	.	0%	-4%[46.1 µM]	-8.1%
O=C(CSc1nccc(=O)[nH]1)N1N=C2/C(=C/c3ccco3)CCCC2C1c1ccco1 (centres undefined)	-12%	-2%[46.1 µM]	0%	3%	.	.	-6%	.
COc1ccc(/C=C/C(=O)O)cc1COc1ccccc1C	-18%	32%	-12%	-16%	-15%	-2%	-11%	-6.1%
Cc1ccc(NC(=O)CSc2sc3c(O)cc(=O)[nH]c3c2C#N)c(F)c1	-3%	9%[46.1 µM]	9%	3%	21%	.	29%[46.1 µM]	.
CC(C)OC(=O)c1cccc(NC(=O)Cn2nnc3sc4c(c3c2=O)CCCC4)c1	0%	-16%[46.1 µM]	.	.	.	12%	20%[46.1 µM]	-3.4%
